HIV TAR-Tat – HIV-1 TAR-Tat binding disruption. HIV-1 TAR RNA, Tat peptide displacement FRET; stronger effect = higher value. z-score (no concentration beside the values). actives 0.6% (n = 100,000). AID 1259389;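 also: score is relative to mean and SD of negative controls; some compounds called inactive have numbers as strong as hits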
CDC25B CDK2 inh – human CDC25B-CDK2/CyclinA binding inhibition | P30305+P24941 | HTRF CDC25B-CDK2/CyclinA binding, anti-His/anti-Flag; stronger effect = higher value | z-score (no concentration beside the values) | actives 0.72% (n = 94,000) | AID 1259370;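 also: score is relative to mean and SD of negative controls; strong numbers were not always called active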
Numbers without * were called inactive; x = no result given.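 The calls were made as follows: active = z-score from 3 up in half or more of its runs; inactive = the rest.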

SMILES	HIV TAR-Tat	CDC25B CDK2 inh
Cc1cc(-c2ccc(S(=O)(=O)NC3CCCC3)cc2)on1	0.06	x
CCC(=O)OCC(=O)[C@@]1(OC(=O)CC)[C@@H](C)CC2C3CCC4=CC(=O)C=C[C@]4(C)C3(F)[C@@H](O)C[C@@]21C (some centres not stated)	-0.1	x
Cc1occc1-c1nnc(SCC(=O)N2CCCCC2)o1	0.87	-1.3
CC12CC(c3ccc(O)cc3O1)C(C(=O)c1ccccc1)C(=O)N2 (configuration not stated)	x	-2.5
CCOC(=O)OC(C)OC1=C(C(=O)Nc2ccccn2)N(C)S(=O)(=O)c2ccccc21 (configuration not stated)	0.2	x
CCCN(CCC)S(=O)(=O)c1cc2[nH]c(=O)c(=O)[nH]c2cc1C	0.41	x
CCOC(=O)c1[nH]c2c(c1C)C(=O)CC(c1ccco1)C2 (configuration not stated)	0.22	-0.58
Cc1ccccc1Nc1c(-c2cccnc2)nc2ccc(Br)cn12	x	-1.7
COC(=O)c1c(C)oc2ccc(O)c(CN3CCN(C)CC3)c12	-1.3	-2.7
c1ccc(CCc2nn3c(-c4ccncc4)nnc3s2)cc1	1.4	1.5
Cc1cc2c(s1)CCc1cc(C(=O)NCCN3CCOCC3)sc1-2	0.52	x
O=C1CCCC2=C1C(c1ccco1)N(C(=O)CCC(=O)N1CCOCC1)c1ccccc1N2 (configuration not stated)	1	x
C=CCn1c(-c2cccs2)nc2ccccc21	0.96	0.19
CCOC(=O)CN1C(=O)c2ccccc2Sc2ncccc21	-2	-0.45
CCN(CC)S(=O)(=O)c1ccc(OC)c(OC)c1	-0.39	-0.97
O=C(C1=C(O)C(=O)N(CCCn2ccnc2)C1c1ccc(F)cc1)c1ccco1 (configuration not stated)	0.24	-2.5
COc1ccc(-n2c(Cc3cccn3C)nnc2SCC(=O)Nc2cc(Cl)ccc2OC)cc1	x	-2.2
COc1ccc(CNc2nc(-c3ccc(C)cc3)cc(C(F)F)n2)cc1	x	-1.1
O=C(NCCS(=O)(=O)N1CCN(c2ccc(F)cc2)CC1)C1CC(=O)N(c2ccc(F)cc2)C1 (configuration not stated)	1.3	x
Cc1cccc(N(C)S(=O)(=O)c2cc(-c3cc(C)no3)ccc2C(C)C)c1	-0.73	x
CCOC(=O)c1c(C)c(C(=O)Nc2ccc(Br)cc2)c(C)n1C	x	-0.72
Cn1c(=O)[nH]c(=O)c2c1nc(CN1CCOCC1)n2CC(N)=O	1.7	0.05
CCN(CC)CCNC(=O)CCc1c(C)nn2cnnc2c1C	0	x
O=C(O)c1cc2nc(-c3ccc4c(c3)OCO4)cc(C(F)(F)F)n2n1	0.79	-1.8
CCCCOC(=O)C1=C(C)NC2=C(C(=O)CCC2)C1c1cc2c(cc1Br)OCO2 (configuration not stated)	1.7	-0.92

An excerpt from further up, for reference:
SMILES	HIV TAR-Tat	CDC25B CDK2 inh
CCOC(=O)c1c(C)c(C(=O)Nc2ccc(Br)cc2)c(C)n1C	x	-0.72
Cn1c(=O)[nH]c(=O)c2c1nc(CN1CCOCC1)n2CC(N)=O	1.7	0.05
CCN(CC)CCNC(=O)CCc1c(C)nn2cnnc2c1C	0	x
O=C(O)c1cc2nc(-c3ccc4c(c3)OCO4)cc(C(F)(F)F)n2n1	0.79	-1.8
CCCCOC(=O)C1=C(C)NC2=C(C(=O)CCC2)C1c1cc2c(cc1Br)OCO2 (configuration not stated)	1.7	-0.92

Exported in markdown: entries from further up.
| SMILES | HIV TAR-Tat | CDC25B CDK2 inh |
| --- | --- | --- |
| CCCN(CCC)S(=O)(=O)c1cc2[nH]c(=O)c(=O)[nH]c2cc1C | 0.41 | x |
| CCOC(=O)c1[nH]c2c(c1C)C(=O)CC(c1ccco1)C2 (configuration not stated) | 0.22 | -0.58 |
| Cc1ccccc1Nc1c(-c2cccnc2)nc2ccc(Br)cn12 | x | -1.7 |

Exported field by field: part of the list above
CCCN(CCC)S(=O)(=O)c1cc2[nH]c(=O)c(=O)[nH]c2cc1C
  HIV TAR-Tat = 0.41 | CDC25B CDK2 inh = x
CCOC(=O)c1[nH]c2c(c1C)C(=O)CC(c1ccco1)C2 (configuration not stated)
  HIV TAR-Tat = 0.22 | CDC25B CDK2 inh = -0.58
Cc1ccccc1Nc1c(-c2cccnc2)nc2ccc(Br)cn12
  HIV TAR-Tat = x | CDC25B CDK2 inh = -1.7

(cont.)
SMILES	HIV TAR-Tat	CDC25B CDK2 inh
Cc1cccn2cc(-c3ccc(F)cc3)nc12	1.2	-1.2
Cc1cc(C)n(-c2nnc(Nc3cc(Cl)ccc3O)c3ccccc23)n1	-0.07	x
CCc1ccc(S(=O)(=O)NCCc2csc3nc(-c4ccccc4F)nn23)cc1	-0.78	x
Cc1ccc(-c2nc3ncccc3o2)cc1NC(=O)c1ccc2ccccc2c1	x	2.4
O=C(NCCCN1CCOCC1)c1ccc(CN2CC(=O)N3CCCC3C2=O)cc1 (configuration not stated)	2.5	x
CN1C(=O)c2cc(NC(=O)C3CCCN(S(=O)(=O)N4CCCC4)C3)ccc2N2CCN=C12 (configuration not stated)	1.4	x
CCCCc1nn2c(=O)cc(CSc3n[nH]c(CC(C)C)n3)nc2s1	-1.1	x
CC1=C(C(=O)OC(C)C)C(c2ccc(Cl)cc2)C2=C(CCCC2=O)N1 (configuration not stated)	2.6	-0.17
COc1ccc(C(=O)c2cn(Cc3ccc(Cl)cc3)c3cc4c(cc3c2=O)OCCO4)cc1OC	0.65	-0.52
C=CCNC(=S)NNC(=O)Cc1ccc([N+](=O)[O-])cc1	x	-3.2
COC(=O)c1ccc(C2Nc3c(C)cc(C)cc3C3C=CCC32)cc1 (configuration not stated)	-2.9	-0.83
CC(C)c1cc(-c2nc(-c3ccccn3)no2)n[nH]1	-0.72	x
Cc1cc(NC(=O)CN(C)S(=O)(=O)c2cc3c(cc2C)NC(=O)CO3)no1	1.8	x
C=CCN(C(=O)C1CCCN(c2ncnc3c2nc2n3CCCCC2)C1)c1ccccc1 (configuration not stated)	0.33	x
CCSc1nc2n(n1)C(c1cccc(OC)c1OC)C1=C(CCCC1=O)N2 (configuration not stated)	2.6	-0.69
CC1CCN(c2c(NCC3CCC(C(=O)Nc4ccccn4)CC3)c(=O)c2=O)CC1 (configuration not stated)	2.5	-1
CCc1cc2c(SCC(=O)c3ccc(C)cc3)ncnc2s1	x	-7.7
Cc1ccccc1OCc1nnc(SCc2cc(=O)c3ccc(C)c(C)c3[nH]2)n1C	-0.23	x
O=C1CC(c2ccccc2)CC2=C1C(c1cccc(Br)c1)Nc1ccccc1N2 (configuration not stated)	x	0.11
CCOC(=O)c1[nH]c(C)c(CN(Cc2ccco2)C(=O)c2cccs2)c1C	0	x
Cc1cc(C)n2ncc(C(=O)Nc3ccc(Cl)cc3)c2n1	-0.66	x
CCN(CC)Cc1c(O)ccc2c(=O)c(-c3ccccc3Cl)coc12	-0.98	-0.29
CCOc1ccc(-c2cccc(NS(=O)(=O)c3cc(C)c(OC)c(C)c3C)c2)nn1	1.2	x
CCOc1ccc2c(c1)C(=O)c1cc(O)ccc1-2	1.5	-1.1
Cc1ccc(S(=O)(=O)N(Cc2nc(-c3ccccc3)no2)C(C)C)cc1	-0.68	-1.3

New compounds follow
SMILES	HIV TAR-Tat	CDC25B CDK2 inh
CCOC(=O)c1c(C)[nH]c(C)c1S(=O)(=O)N1CCOCC1	1.2	x
CCc1nnc2sc(COc3ccccc3)nn12	1.7	-0.98
CN(C)c1cc(-c2cccs2)oc(=O)c1Cl	x	-0.54
CCOC(=O)C(=CNc1cc(C(F)(F)F)ccc1NCCc1ccccn1)C(=O)OCC	x	-0.8
COc1ccc(C(N)=O)cc1N=NC1=C(O)CC(C)(C)CC1=O	x	-8.2
CCC(NS(=O)(=O)c1ccc2c(c1)N(C(C)=O)CC(C)S2)c1cccs1 (configuration not stated)	1.1	x
CCOC(=O)c1cc(-c2ccc(Cl)cc2)oc1C(F)(F)F	x	-1.8
CN(C)CCCN1C(=O)c2oc3ccc(F)cc3c(=O)c2C1c1cccc(F)c1 (configuration not stated)	0.33	x
CC(C)Nc1nc(N2CCOCC2)nc2c1cnn2C	1.4	x
O=C1c2ccccc2C(Nc2ccc(F)c(Cl)c2)N1c1ccc(Cl)cn1 (configuration not stated)	0.63	-0.16
CCC(C)N=C1NS(=O)(=O)C(c2ccc(C)c(C)c2)=C1C (configuration not stated)	0.8	-1.6
O=C(Nc1ccc(Cl)cc1)C1=Cc2cc(Cl)ccc2OC1	x	1.4
N#Cc1c(-c2ccc(Cl)cc2)nc(SCC(N)=O)[nH]c1=O	-2.7	-0.62
CCc1nn(CC(=O)N2CCN(c3ccccn3)CC2)c(=O)c2cc3ccccc3n12	3.7	-0.12
O=c1cnnc(Nc2ccccc2)[nH]1	1.5	-0.17
Cc1cc(Br)ccc1NC(=O)C1Sc2nnc(C)n2NC1c1ccc(F)cc1 (configuration not stated)	0.15	-1.6
Cc1ccc(S(=O)(=O)N2CC=C(c3c(C)n(C)c4ccccc34)CC2)cc1	1.2	-0.8
CC(=O)Nc1ncccc1OC(C)=O	x	-0.32
Cc1nn(C)c2sc(C(=O)NC3CCCCNC3=O)cc12 (configuration not stated)	x	-3.1
Cc1ccc(C(=O)CC2(O)C(=O)Nc3ccc(Cl)cc32)cc1C (configuration not stated)	1.3	x
COc1cccc(-n2nnc(-c3nc(-c4ccc(Br)cc4)no3)c2N)c1	0.41	x
CSc1ccc(C2Nc3ccccc3NC3=C2C(=O)CC(c2ccccc2)C3)cc1 (configuration not stated)	-0.52	-1.7
CN(C)/C=C/C(=O)c1ccccc1C(=O)c1ccccc1	x	-2
CCC(C)NC(=O)C(=O)NCc1n[nH]c(=O)c2ccccc12 (configuration not stated)	0.59	x
Cc1cc(-c2ccc(S(=O)(=O)Nc3ccccn3)s2)on1	0.08	x

Following part
SMILES	HIV TAR-Tat	CDC25B CDK2 inh
COc1ccc(-c2noc(CSc3nc4ccccc4[nH]3)n2)cc1OC	-0.05	1.6
CC(C)(C)c1ccc(C(=O)C2CC2)cc1	x	-1.9
Cc1c(C)c(C)c(S(=O)(=O)NCCCN2CC(C)OC(C)C2)c(C)c1C (configuration not stated)	x	0.39
CCN(CC)C(=O)CSc1cn(CC(=O)N2CCCCC2)c2ccccc12	0.86	x
CCOc1cccc2c1Oc1nc(-c3cc(Cl)ccc3O)[nH]c(=O)c1C2	1.2	-0.78
O=C(O)Cc1c[nH]c2ccccc12	-0.79	0.61
O=S(=O)(O)c1cc(S(=O)(=O)O)c2cc(O)ccc2c1	x	0.97
CCCCCn1cnc2scc(-c3ccc(Cl)cc3)c2c1=O	1.2	0.65
N#Cc1nc(/C=C/c2cccs2)oc1N1CCN(C(=O)c2cccc(F)c2)CC1	-0.13	-0.78
CCOC(=O)Cc1nnc2c(N(CC)c3ccccc3)nc3nonc3n12	0.48	0.8
Cc1cc(C)cc(-n2c(C)cc(C(=O)C(=O)Nc3nnc(C)s3)c2C)c1	1.5	-0.82
CCCCNc1nc(C(=O)OCC)nc2ccccc12	0.87	x
CC1CCN(S(=O)(=O)c2ccc(C3CCCCC3)cc2)CC1	0.74	-0.21
Cc1cc(C)n(-c2nc3ccccc3nc2N2CCN(S(=O)(=O)c3ccccc3)CC2)n1	-0.35	-0.13
Cc1cc(C)n2cc(CSc3nncn3-c3ccccc3)nc2n1	x	-1.3
COc1cc2nc(NCc3ccccc3)n3nc(-c4ccccc4)nc3c2cc1OC	2	-1.1
O=C1CC(c2ccccc2)CC2=C1C(c1ccc(Cl)cc1)C1=C(N2)c2ccccc2C1=O (configuration not stated)	x	-0.51
Cn1c(NCCO)nc2c1c(=O)n(Cc1cccc(F)c1)c(=O)n2C	0.69	-3.1
Cc1n[nH]c(C)c1N=Nc1cc(Cl)cc(Cl)c1	x	1.4
Cc1ccc(-c2nc(SCc3cc(=O)n4ccsc4n3)n[nH]2)cc1	0.27	x
CCOc1ccc(C2=Nc3ccccc3NC(c3cccs3)=N2)cc1	2.4	-2.1
O=c1c2cn(Cc3ccc(F)cc3)c3ccc(F)cc3c-2nn1Cc1ccccc1F	-3.8	x
Cc1ccc(-c2onc3ccc(C(=O)NC4CCCC4)cc23)cc1	1.3	x
CC(C)c1ccc(-c2c(C#N)c(N)nc(SC3CCCCC3=O)c2C#N)cc1 (configuration not stated)	x	-0.45
O=c1cc(CSc2nc(Nc3ccc(F)c(F)c3)c3ccccc3n2)nc2ccc(Cl)cn12	0.46	x

(next part)
SMILES	HIV TAR-Tat	CDC25B CDK2 inh
CC(C)NC(=O)Cn1cc(C(=O)c2ccco2)c2ccccc21	1.1	0.73
CCOc1ccc(Br)cc1C1C(C(N)=O)=C(C)Nc2nnnn21 (configuration not stated)	0.86	-2.2
Cc1cc2c3c([nH]c2cc1S(=O)(=O)NCCc1ccco1)CC(C)(C)CC3=O	0.03	x
CC(O)CNc1ncnc2nc[nH]c12 (configuration not stated)	x	0.08
O=C(F)C1(F)C(F)(F)C(F)(F)C(F)(F)C(F)(F)C1(F)F	x	-1.2
CC(=O)c1cc(Cl)cc(Cl)c1OC(=O)c1ccc([N+](=O)[O-])cc1	x	-2.1
NCCSCc1c(Cl)cccc1Cl	x	-1.2
Cn1c(NC(=O)c2ccco2)cc(=O)n(C)c1=O	1.2	-0.58
CN(CC(=O)N1CCCCCC1)S(=O)(=O)c1ccc2c(c1)c(=O)n(C)c(=O)n2C	x	0.13
CC1=C(C(=O)OC2CCCC2)C(c2cccc(Cl)c2)C2=C(CCCC2=O)N1 (configuration not stated)	x	-0.21
CC(=O)OC[C@@H](OC(C)=O)[C@@H](OC(C)=O)[C@@H](/C=N/N=C(N)N)OC(C)=O	x	-0.56
Cc1ccc(C)c(Cn2c(C)c(CNCc3ccc4c(c3)OCO4)c(C(=O)O)c2C)c1	0.83	x
O=C(Oc1ccccc1)c1cncc(C#Cc2ccccc2)c1	x	0.54
CC(C)Cc1nc2sc3c(SCC(=O)Nc4ccccn4)ncnc3c2c2c1COC(C)(C)C2	-0.37	0.15
CN(C)C(=O)c1ccc2c(c1)N(CC(=O)NCCc1cnc[nH]1)C(=O)CO2	1.6	x
